GLA inh pH 4.5: inhibitors of human alpha-galactosidase A at pH 4.5 | P06280 | purified enzyme, 4-MU-alpha-Gal fluorescence, pH 4.5 | activity change, negative = inhibition, % at 105 µM | 230,000 tested, under 10 active | AID 1467; inconclusive = small, poorly fitted or top-dose-only inhibition, or a rising curve; inactive = flat fitted curve, though single readings scatter; no compound was filed as active;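 also: 0% = full activity with enzyme and -100% = basal without enzyme; dose as in the result columns while the protocol names 77 µM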
Target sequence (P06280 whole entry, looked up): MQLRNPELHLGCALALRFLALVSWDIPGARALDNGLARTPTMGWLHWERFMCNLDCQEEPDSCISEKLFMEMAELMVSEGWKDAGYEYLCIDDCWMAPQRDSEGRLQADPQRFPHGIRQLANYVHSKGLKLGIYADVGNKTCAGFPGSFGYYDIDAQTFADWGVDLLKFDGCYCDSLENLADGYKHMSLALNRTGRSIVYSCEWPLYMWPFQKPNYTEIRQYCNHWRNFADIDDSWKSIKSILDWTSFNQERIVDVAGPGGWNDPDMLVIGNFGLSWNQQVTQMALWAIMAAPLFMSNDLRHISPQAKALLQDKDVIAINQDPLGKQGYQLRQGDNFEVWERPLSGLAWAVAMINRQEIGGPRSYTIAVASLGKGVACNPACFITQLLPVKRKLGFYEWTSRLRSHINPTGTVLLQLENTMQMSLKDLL
Rango-impB inh: Rango-importin beta binding inhibition; Q14974; Rango CFP/YFP FRET sensor + importin beta, 45 min; Potency, µM (highest dose often 92.2 µM), inactives show top-dose inhibition of complex formation; hit rate 0.031% among 340,000; AID 540263; active = rising FRET ratio curve, often small or poorly fitted; inconclusive = mostly compound fluorescence or quenching in the first reads; inactive = flat curves in all reads;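 also: potency is read from the fitted curve at half-maximal effect; 0% = DMSO wells and 100% = buffer wells lacking importin beta; nearly all actives have a fitted effect of over 15% in size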
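FRET biosensor (snurportin 1 IBB flanked by EYFP and cerulean), 50 nM, with compound 5 min, then 0.125 microM importin beta in PBS, 1 mM DTT, 0.02% Tween-20, 0.1% BSA. CFP/YFP ratio read after 45 min at room temperature; pre-read flags interference.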
miR-21 reporter: miR-21 reporter, rising signal; HeLa miR-21 FLuc reporter, luciferase, 48 h; Potency, µM (titrated, usually from 38.3 µM), without a hit: at the highest dose reporter change, positive = more light; 340,000 tested, under 10 active; AID 2288; active = well fitted rising curve with a large enough effect; inconclusive = small, poorly fitted or top-dose-only effect; inactive = no such curve, though single readings can be large or run the other way;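 also: % of control where 0% means no effect; miR-21 action dims this reporter so a rising signal means less miR-21 action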
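HeLa cells stably expressing CMV-driven firefly luciferase with a downstream miR-21 binding sequence, endogenously expressing miR-21, were treated with titrations (up to about 40uM final) for 48 hours at 37 degree Celsius. Luciferase luminescence was read after lysis.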
Rango dissoc inh: prevents RanGTP from dissociating the Rango-importin beta complex. O95149+P62826. Biochemical FRET Rango-importin beta, RanGTP-induced dissociation. Potency, µM (titrated, usually from 46.1 µM), inactives show at the highest dose activity change, negative = inhibition. hit rate 0.071% among 340,000; active means falling FRET ratio curve, often poorly fitted, with flat reads before Ran was added; inconclusive means other falling curves, or compound fluorescence or quenching; inactive means flat or rising ratio curve;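 also: potency is read from the fitted curve at half-maximal effect; % of control where 0% means no effect; nearly all actives have a fitted effect of over 45% in size; -100% = wells without RanGTP and RCC1; the record marks most hits as doubtful in a second field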
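Rango (0.1 uM)–importin beta (0.25 uM) complex; RanGTP-RCC1 trigger; 45 min RT; CFP/YFP FRET read.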
The depositor's hits bear a star; ? = inconclusive; nt = not tested or not shown.

item | GLA inh pH 4.5 | Rango-impB inh | miR-21 reporter | Rango dissoc inh | Structure
1 | -23 | -3.9% | 0% | 1% | O=C(N/N=C/c1ccc(O)c(O)c1O)/C(=C/c1ccc([N+](=O)[O-])cc1)NC(=O)c1ccccc1
2 | -1 | -0.7% | -6% | 1% | Cc1ccc(O)c(NC(=O)CN(C)S(=O)(=O)c2ccc(Cl)cc2)c1
3 | nt | 1.2% | nt | 3% | CC12CCC(=O)N1C(C(=O)Nc1nc3ccccc3s1)CS2 (stereo not given)
4 | nt | -1.5% | 3% | 10% | Cc1ccccc1NC(=O)Cc1nnc(SCC(=O)NC2CCCCC2)n1C
5 | -12 | 0.1% | -2% | -5% | COc1ccccc1N1CCN(C(=O)c2cc(-c3ccc(C)cc3)on2)CC1
6 | nt | -2.4% | nt | -4% | Cc1cc(C)c(NC(=O)CSc2nc3ccccc3c(=O)n2CCCN2CCOCC2)c(C)c1
7 | -2 | -0.5% | 2% | 1% | CN1CCN(C(=O)c2ccc(Oc3ccc([N+](=O)[O-])cc3)cc2)CC1
8 | -6 | -0.1% | -1% | -2% | Cc1ccc(C)c(S(=O)(=O)NCCCn2ccnc2)c1
9 | nt | 0.4% | nt | -18% | CNS(=O)(=O)c1cccc(C(=O)OCC(=O)Nc2ccc3ccccc3c2)c1
10 | 4 | -5.4% | 17% | -8% | CC(=O)c1cccc(NC(=O)Nc2cnn(Cc3ccc(Cl)cc3Cl)c2)c1
11 | 6 | -0.1% | -8% | 5% | CSc1nnc(-c2nnc(SC)n2-c2ccccc2)n1-c1ccccc1
12 | 4 | nt | -24% | nt | COc1ccc(CCn2c(=O)[nH]c3cc(C(=O)NCCc4ccccc4)ccc3c2=O)cc1OC
13 | nt | 0.5% | -29% | 18% | Cc1ccc(NC(=O)c2ccc3c(c2)C(=O)N(c2cc(C)ccc2C)C3=O)nc1
14 | -4 | nt | 0% | nt | CC1(C)NC(=O)N(CC(=O)Nc2cc(S(=O)(=O)N3CCOCC3)ccc2N2CCOCC2)C1=O
15 | nt | 1.4% | 2% | 2% | Cc1ccc(NC(=S)NC2CCSc3ccccc32)cc1C (stereo not given)
16 | ? | ? | -6% | ? | CN1/C(=C\C=N\NC(=O)c2cccnc2)C(C)(C)c2ccccc21
17 | nt | 5.0% | nt | 24% | Cc1ccc(NC(=O)C2CC(=O)N(CCc3ccccc3)C2)cc1Cl (stereo not given)
18 | -11 | 1.3% | -4% | 1% | Cc1ccc(/C=C/C2=NN(Cc3ccccc3)C(=O)CC2)cc1
19 | nt | 0.9% | -52% | 0% | Cc1ccccc1C(=O)Oc1ccc2ccc(O)cc2c1
20 | 2 | 2.3% | 0% | -1% | COC(=O)c1ccccc1NC(=O)CS(=O)(=O)Cc1nc(-c2ccc(C)cc2)oc1C

Gathered by group, the compounds so far with an aryl thioether with sulfur outside any ring
item | GLA inh pH 4.5 | Rango-impB inh | miR-21 reporter | Rango dissoc inh | Structure
4 | nt | -1.5% | 3% | 10% | Cc1ccccc1NC(=O)Cc1nnc(SCC(=O)NC2CCCCC2)n1C
6 | nt | -2.4% | nt | -4% | Cc1cc(C)c(NC(=O)CSc2nc3ccccc3c(=O)n2CCCN2CCOCC2)c(C)c1
11 | 6 | -0.1% | -8% | 5% | CSc1nnc(-c2nnc(SC)n2-c2ccccc2)n1-c1ccccc1

Single records, as listed above. Order of values: GLA inh pH 4.5 | Rango-impB inh | miR-21 reporter | Rango dissoc inh
Entry for Cc1ccc(NC(=S)NC2CCSc3ccccc32)cc1C (stereo not given) → nt | 1.4% | 2% | 2%
Entry for Cc1ccc(O)c(NC(=O)CN(C)S(=O)(=O)c2ccc(Cl)cc2)c1 → -1 | -0.7% | -6% | 1%
Entry for COC(=O)c1ccccc1NC(=O)CS(=O)(=O)Cc1nc(-c2ccc(C)cc2)oc1C → 2 | 2.3% | 0% | -1%
Entry for Cc1ccc(NC(=O)C2CC(=O)N(CCc3ccccc3)C2)cc1Cl (stereo not given) → nt | 5.0% | nt | 24%

Other structures.
item | GLA inh pH 4.5 | Rango-impB inh | miR-21 reporter | Rango dissoc inh | Structure
21 | -9 | 0.9% | 12% | 13% | CCOC(=O)c1oc2ccc(CNC3CCCCC3)c(Cl)c2c1C
22 | -6 | -0.3% | -9% | 2% | COc1ccc(CNC(=O)c2cc(-n3cnnc3)ccc2Cl)cc1
23 | 4 | -0.2% | 2% | -9% | Cc1ccc(S(=O)(=O)N(C)C)cc1NC(=O)COC(=O)/C=C/c1ccc2c(c1)OCO2
24 | 1 | -0.5% | -30% | 2% | CC(C)(C)SCCNC(=O)c1ccc(NS(C)(=O)=O)cc1
25 | -6 | 2.7% | -28% | -9% | COc1ccc(-c2cc(-c3n[nH]c(=S)n3-c3cccc4ccccc34)[nH]n2)cc1
26 | -2 | 0.5% | -36% | 1% | COc1cc(SC)ccc1C(=O)NCc1ccccc1
27 | 7 | -0.5% | -3% | 1% | Cc1[nH]n(-c2nc(-c3ccccc3F)cc(=O)[nH]2)c(=O)c1CCO
28 | 4 | 0.0% | 13% | -9% | O=C(C1CCCN(S(=O)(=O)c2cccc3nsnc23)C1)N1CCc2ccccc2C1 (stereo not given)
29 | 3 | 0.4% | -1% | -3% | CCCOC(=O)Nc1c(C)cccc1C(C)C
30 | nt | 1.0% | -18% | 0% | CCCCc1cc(=O)oc2cc(OC(C)C(=O)NCC3CCC(C(=O)O)CC3)c(Cl)cc12 (stereo not given)
31 | 6 | 0.0% | 4% | 1% | CCc1ccccc1NC(=S)N(Cc1ccc(OC)cc1)CC1CCC(C(=O)O)CC1 (stereo not given)
32 | nt | 1.4% | nt | 5% | O=S(=O)(c1ccccc1)N1CCN(c2nc(-c3cccnc3)nc3ccccc23)CC1
33 | nt | -0.3% | nt | -5% | CCNC(=O)NC(=O)C(C)OC(=O)c1cccnc1SC (stereo not given)
34 | -3 | -2.5% | 0% | -10% | Cc1ccccc1NCC(=O)N=Nc1c(O)[nH]c2ccc([N+](=O)[O-])cc12
35 | 8 | 1.3% | 2% | 22% | OC(CN1CCOCC1)c1ccc(F)cc1 (stereo not given)
36 | nt | -5.4% | nt | -9% | Cc1ccc(NC(=O)COC(=O)c2ccc(=O)n(Cc3ccccc3)n2)cc1F
37 | -1 | -0.4% | -43% | 8% | CC(C)n1cnc2cc(NCc3ccccc3O)ccc21
38 | -3 | ? | -9% | -14% | COC(=O)c1ccc(NC(=O)CNCc2ccncc2)cc1
39 | 6 | -0.6% | -17% | -8% | O=C(Nc1ccc(Cl)cc1)N1CCOC12CCC1(CC2)OCCO1
40 | nt | -2.2% | nt | -9% | Nc1nc(N)c(N=Nc2ccccc2)c(=O)[nH]1

Later entries:
item | GLA inh pH 4.5 | Rango-impB inh | miR-21 reporter | Rango dissoc inh | Structure
41 | 0 | -5.4% | -21% | 13% | COc1cccc(C(=O)Nc2cccc(NC(C)=O)c2)c1
42 | 12 | -0.3% | 0% | 16% | O=C(NCC1CCCO1)[C@@H]1CSC2c3ccccc3C(=O)N21 (stereo not given in full)
43 | nt | -0.8% | -60% | -4% | C/C(=N\NC(=O)c1nnn(-c2nonc2N)c1C)c1ccc(OCc2ccccc2)cc1
44 | -1 | 1.4% | -2% | 9% | CC(=O)c1ccc(-c2ccc(C(=O)N3CCCc4ccccc43)o2)cc1
45 | nt | 2.4% | nt | 7% | COCCN(C(=O)COC(=O)c1cccnc1Cl)c1c(N)n(Cc2ccccc2)c(=O)[nH]c1=O
46 | -4 | -0.7% | -9% | -4% | COc1ccc(CCNC(=O)Cc2cc(=O)[nH]c(=O)[nH]2)cc1OC
47 | nt | -0.3% | nt | -6% | CC1CCC2(CC1)NC(=O)N(CC(=O)N(Cc1ccccc1)C(C)(C)C)C2=O (stereo not given)
48 | nt | -0.3% | -4% | 6% | CCCN1CCN(C2CCCCC2NS(=O)(=O)c2ccc(Cl)cc2)CC1 (stereo not given)
49 | nt | -3.2% | nt | -11% | Cn1c(=O)c2c(nc(CCc3ccccc3)n2C)n(C)c1=O
50 | 2 | -0.6% | -2% | 22% | Cc1ccc(CNC(=O)CSc2nc3ccccc3c(=O)n2CCCO)cc1
51 | -8 | -2.5% | -17% | -12% | Cn1nc(-c2ccc(Cl)cc2)cc1NC(=O)CC(C)(C)CC(=O)O
52 | nt | -1.5% | nt | -17% | CCCc1cc(=O)[nH]c2nnc(SCC(=O)Nc3ccc4c(c3)OCCO4)n12
53 | nt | 0.3% | 26% | -17% | Cc1ccc(-n2nc3c(=O)n(C(C)C(=O)NCCC4=CCCCC4)nc(C)c3c2C)cc1 (stereo not given)
54 | -4 | -3.0% | -8% | 0% | Cc1nn(CCc2nn[nH]n2)c2nc(-c3ccc(Br)cc3)cc(C(F)(F)F)c12
55 | nt | 2.5% | nt | 42% | Cc1ccc(C)c(Sc2ccc(NC(=O)CCN3C(=O)NC4(CCCC4)C3=O)cc2)c1
56 | -3 | ? | -13% | 13% | Cc1ccc(S(=O)(=O)N(C)C)cc1NC(=O)c1ccccc1Br
57 | -2 | -0.8% | -4% | -9% | CN(C[C@H](Cc1ccccc1)N(CCN(CCc1ccccc1)N=O)N=O)N=O
58 | 5 | -2.7% | -2% | 3% | COc1cc(/C=C/C(=O)O)cc(S(=O)(=O)NCc2ccc3c(c2)OCO3)c1OC
59 | 0 | -2.3% | -7% | -6% | O=C(COc1ccc2ccccc2c1)NNC(=O)[C@@H]1CCCC[C@@H]1C(=O)O
60 | -3 | ? | -1% | -8% | CCSc1nnc(NC(=O)C2CCN(S(=O)(=O)c3cc(C(F)(F)F)ccc3Cl)CC2)s1

The listing continues.
item | GLA inh pH 4.5 | Rango-impB inh | miR-21 reporter | Rango dissoc inh | Structure
61 | -17 | -0.1% | -60% | -4% | Cc1ccc(/C=C/C(=O)NCc2cccs2)cc1
62 | nt | 4.0% | nt | 1% | Cc1nc(SCCc2nc3ccccc3[nH]2)c2oc3ccccc3c2n1
63 | -7 | -0.1% | 11% | -7% | COc1ccc(NC(=O)Cn2c(=O)c(C)nc3ccccc32)cc1Cl
64 | -2 | 2.1% | -24% | -16% | Cc1ccc2c(c1)C(=O)C(=O)N2CCCOc1ccccc1
65 | 2 | 0.3% | -6% | 3% | COc1cccc(NC(=O)Nc2nnc(-c3ccccc3SCc3ccccc3)s2)c1
66 | 2 | 1.0% | -2% | -6% | O=C(c1nc2nc(-c3ccccc3)cc(C(F)(F)F)n2n1)N1CCOCC1
67 | nt | 0.5% | nt | 9% | COc1cc2[nH]cc(C(=O)NCc3cccs3)c(=O)c2cc1OC
68 | 5 | ? | -34% | nt | Cc1ccc(N=Cc2sc(O)c3ccccc23)c(C)c1
69 | nt | -0.2% | 2% | -5% | Cc1ccc(NC(=O)c2cc(S(=O)(=O)N3CCOCC3)cn2C)cc1F
70 | 1 | -0.2% | -10% | 8% | CC(=NCC1CCCO1)C1=C(O)CC(C)(C)CC1=O (stereo not given)
71 | 7 | 0.5% | -6% | 23% | COc1ccc(C(CC(=O)N2CCOCC2)C(C)C)cc1 (stereo not given)
72 | 5 | -1.5% | 3% | -16% | COc1ccc(N2C(=O)c3cccc4cc(Br)cc(c34)C2=O)cc1

Bioassay records from PubChem BioAssay.

A portion of the library; rates above refer to the full screens.
